# Source: PubChem
# Sa growth inh: S. aureus growth inhibition at 42 and 30 °C, primary screen, LtaS inhibitor project, RN4220, two temperatures; AID 720641, 2013; relative growth, % (no concentration beside the values); OD600, 20 h, 42 °C; stronger effect = lower value; 0.53% of 170,000 active;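 active means growth at 42 °C up to 50% and 20 or more points under that at 30 °C, or under 10% at both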;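 further: 300 nL library stock went into each well; scaled to the means of positive and negative controls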
# GIV-Gai inh: inhibitors of GIV peptide binding to Galpha-i3, primary screen, biochemical, fluorescence polarization, FITC-GIV GBA peptide, rat Galphai3; AID 1224905, 2016; Guanine nucleotide-binding protein G(i) subunit alpha-3 (Rattus norvegicus), P08753; 90 min; stronger effect = lower value; scaled: aluminum fluoride 0%, vehicle 100%; percent of control (FP), % (no concentration beside the values); 0.42% of 210,000 active;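 active means replicate mean at 85% of control or lower, very high polarization wells dropped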;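 further: wells of about 15 µL received 100 nL stock; the first replicate is given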
# Target sequence (P08753 whole entry, looked up): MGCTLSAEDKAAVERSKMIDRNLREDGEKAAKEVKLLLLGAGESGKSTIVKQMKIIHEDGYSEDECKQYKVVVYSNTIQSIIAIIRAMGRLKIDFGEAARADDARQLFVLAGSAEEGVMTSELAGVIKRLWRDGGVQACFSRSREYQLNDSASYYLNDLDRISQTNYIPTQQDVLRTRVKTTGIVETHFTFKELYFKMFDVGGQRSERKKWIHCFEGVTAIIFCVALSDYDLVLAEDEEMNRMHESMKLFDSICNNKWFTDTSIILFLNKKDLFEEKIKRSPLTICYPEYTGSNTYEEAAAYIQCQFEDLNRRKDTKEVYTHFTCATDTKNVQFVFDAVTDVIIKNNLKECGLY
# HCMV NEC inh: inhibitors of HCMV UL50-UL53 interaction, biochemical, HTRF | HCMV UL50-UL53 nuclear egress complex (human cytomegalovirus) | normalized percent inhibition | inhibition, % (test concentration not listed) | 0.15% of 190,000 active | AID 1918969, 2023;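 active means both replicates at 50% or more, plus weaker picks with an unusually low signal ratio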;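 further: stock transfer was 100 nL into about 20 µL; 0% = negative control wells and 100% = wells with untagged competitor protein; inactives centre near -12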
# Sa growth inh second temp: second read-out of Sa growth inh, no call of its own (marks repeat the call); relative growth, %; measured here: growth at 30 °C;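 optical density after 20 h as mean of two plates; 100% = untreated growth and lower means inhibition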
# * = called active by the depositor; . = not tested or not shown; & = joins results of further samples.
SMILES	Sa growth inh	Sa growth inh second temp	GIV-Gai inh	HCMV NEC inh
Cc1sc2ncn(CC(=O)N3CCN(c4ccc(F)cc4)CC3)c(=O)c2c1S(=O)(=O)N1CCC(C)CC1	117	92	99	-23
O=C(Nc1cccc(Cl)c1)C(Cc1ccccc1)NS(=O)(=O)c1cccc2cccnc12 (stereo unspecified)	.	.	100	-20
Cc1ccc(N2C(=O)CS/C2=N\C(=O)Nc2ccccc2)c(C)c1	105	85	97	-9
O=C(CNCCC1=CCCCC1)Nc1ccc2[nH]c(=O)[nH]c2c1	58	81	.	23
C=CCN(CC=C)Cc1cc(=O)n2c(-c3ccccc3)csc2n1	98	85	.	-21
CC(C)C(=O)Nc1nnc(C2CC2)s1	87	98	.	7
Cc1ccc(Cn2c(CO)cnc2SCC(=O)Nc2ccc3c(c2)OCO3)cc1	89	82	108	-37
CCOc1ccccc1NC(=O)CCS(=O)(=O)c1cccc2nsnc12	101	90	105	-90
CC(C)(C)n1cnc2cc(NCc3ccccc3Cl)ccc21	68	56	102	-7
CCn1c(SCC(=O)OCC(=O)N2c3ccccc3Sc3ccccc32)nnc1-c1ccco1	105	75	.	-38
NNC(=S)Nc1ccccc1C(F)(F)F	101	89	.	-8
Cc1csc(SCC(=O)N2CCCC2)n1	104	94	102	-2
N#CCCSCc1ccc(C(=O)O)o1	78	95	107	26
O=C1C2CCCN2C(c2ccccc2)N1c1ccc(Cl)cc1 (stereo unspecified)	88	89	101	-22
c1ccc(-c2nnc(-c3cccs3)o2)cc1	82	61	102	-17
O=C(COC(=O)COc1ccc(Cl)cc1)NC1CCCCC1	83	94	.	-12
CN(C)C(=O)c1cc(Cl)ccc1Cl	78	128	.	8
FC(F)(F)c1nc(SCc2ccc(Cl)cc2)n[nH]1	25	9	103	-21
COc1ccc(-c2nnc(SCc3cccc(Cl)c3)o2)cc1	99	86	105	-7
CCc1ccccc1NC(=O)C1(C)Cc2ccccc2C(=O)O1 (stereo unspecified)	100	90	104	-10
COCCNC(=O)Cn1cnc2c(nc3n2CCCCC3)c1=O	87	90	98&109	-10&1
Cc1ccc(CNC(=O)c2cccn2-c2nnc(N3CCOCC3)s2)cc1	.	.	108	-15
N#CC1(NC(=O)COc2cccc(C(F)(F)F)c2)CCCCC1	103	91	.	-14
O=C(NCCCN1CCOCC1)c1cc2n(n1)C(C(F)(F)F)CC(c1ccc(Cl)c(Cl)c1)N2 (stereo unspecified)	.	.	93	-23
COC(=O)c1sccc1S(=O)(=O)N(CC(=O)Nc1ccc(C)cc1)c1ccccc1	115	91	104	.
CN(C)C(c1ccccc1)c1ccccc1	100	82	99	-11
Cn1c(=O)c2sccc2n2c(SCc3ccccc3F)nnc12	.	.	98	-34
COCc1cc(C)nc2sc3c(=O)n(-c4cccc(C)c4)nnc3c12	.	.	105	-24
COc1ccc(CCNc2ncccc2C#N)cc1OC	93	91	.	-20
O=C(Nc1ccc(O)c(-c2nc3ccccc3o2)c1)c1ccc(Br)cc1	95	98	100	-4
O=C1CCS(=O)(=O)N1c1ccc(S(=O)(=O)N2CCCC2)cc1	.	.	104	-14
CCCOC(=O)Nc1ccc(Cl)cc1C(=O)c1ccccc1	95	85	.	-10
C=CCNC(=O)c1cc(=O)[nH]c(=O)[nH]1	98	84	103	-27
COc1cccc(CNCCSc2nnnn2-c2ccccc2)c1OC	109	88	101	-12
COc1cc(OCc2ccccc2)ccc1CN1CCC(C(=O)c2ccc(F)cc2)CC1	119	98	101	24
CCCCc1ccc(NC(=O)CSc2nc3ccccc3nc2N2CCOCC2)cc1	101	92	102	-9
Cc1cc(=O)n2[nH]c(C(F)(F)F)c(-c3ccccc3)c2n1	104	78	95	-11
COc1ccccc1N1CCN(C(=O)Cn2cnc3sc(C)c(S(=O)(=O)N4CCC(C)CC4)c3c2=O)CC1	93	88	102	-21
CC(=O)n1nc(-c2cccnc2)nc1N	78	87	105	.
CCN(CC)S(=O)(=O)N1CCC(C(=O)NC2CCCc3ccccc32)CC1 (stereo unspecified)	81	78	107	6
Cc1cc(C)c2cc(C(=O)N(C)C3CCN(C)CC3)[nH]c2c1	110	95	104	-9
COc1cc2c(cc1OC)C(COc1ccc(F)cc1)N(C(=O)c1cccc(F)c1)CC2 (stereo unspecified)	107	83	103	.
O=C(CN1C(=O)COc2ccc(S(=O)(=O)NC3CCCC3)cc21)NCc1ccc(Cl)cc1	128	87	107	.
N#Cc1c(N2CCOCC2)nc(N2CCOCC2)c2c1CCN(Cc1ccccc1)C2	80	100	99	-35
FC(F)(F)c1cc(-c2cccs2)nc2nc(N3CCOCC3)sc12	114	94	.	2
Cc1[nH]nc2c1C1=C(C(=O)CCC1)C(c1ccc(N(C)C)cc1)N2 (stereo unspecified)	106	85	104	-44
O=C(COc1ccccc1)NCc1ccc2c(c1)CCN2C(=O)c1ccccc1	113	83	102	.
CCC(C)NC(=O)c1nn(Cc2ccccc2)c(=O)c2ccccc12 (stereo unspecified)	86	91	.	-20
C/C(=N\N=C(/C)c1cccs1)c1cccs1	119	70	102	-19
O=C(Nc1ccccc1)Oc1ccccc1N1CCOCC1	90	82	99	-27

# (further entries)
SMILES	Sa growth inh	Sa growth inh second temp	GIV-Gai inh	HCMV NEC inh
COc1ccc(C(=O)O)cc1S(=O)(=O)N(C)CCc1ccccn1	86	95	.	-14
CCC(C(=O)N1CCN(c2cc(C)ccc2C)CC1)n1sc2ccccc2c1=O (stereo unspecified)	92	97	97	.
CC1(C)C(c2ccc(F)cc2)=[N+]([O-])C(C)(C)C(c2ccc(F)cc2)=[N+]1[O-]	79	90	.	-14
COCC(C)NC(=O)c1noc2c1CCc1cc(OC)ccc1-2 (stereo unspecified)	96	70	111	.
CCOC(=O)c1c(NC(=O)c2ccc(S(=O)(=O)N(CC(C)C)CC(C)C)cc2)sc2c1CCN(C(=O)OCC)C2	129	96	105	.
COc1ccc(-c2noc(N3CCC(C(=O)N(C)c4cc(Cl)ccc4OC)CC3)n2)cc1	91	81	94	8
COC(=O)CCn1c(C)cc(C(=O)CSc2cccc[n+]2[O-])c1C	81	96	.	-8
COc1ccc2c(c1OC)C(=O)N(c1ccc(F)cc1)C2	85	90	.	-10
CC1(C)C(=O)C2(C(=O)N3CCOCC3)CCC1C2 (stereo unspecified)	90	88	.	-17
COc1ccc(NC(=O)c2oc3ccccc3c2NC(=O)Cc2cccs2)cc1	96	94	103	0
O=C(CSc1nc2ccccc2[nH]1)N1CCCc2ccccc21	104	95	.	2
COc1ccc(C(C)NC=O)cc1OC (stereo unspecified)	111	93	102	-4
COc1cc(OC)c(OC)cc1CN1CCc2nc(N3CCN(C)CC3)ncc2C1	84	92	97	.
O=C(NCCCN1CCCCC1)c1cc(-c2ccncc2)nc2ccccc12	103	92	103	-22
Cc1ccc(OC(C)C(=O)N2CCN(CCc3ccncc3)CC2)cc1C (stereo unspecified)	98	93	102	-5
N#CC(C#N)=C1C=C2C=C(N3CCCCC3)CCC2CC1 (stereo unspecified)	102	95	.	-66
O=C(NCCN1CCOCC1)Nc1c[nH]c2ccccc2c1=O	96	82	98	-9
Cc1ccc(-n2nc(CO)c(C(=O)NCCCc3ccccc3)n2)cc1	101	92	99	-13
CCOc1ccc(CCNC(=O)Cn2nc(-c3ccc(C)cc3)ccc2=O)cc1OCC	107	95	101	.
CC1=Nc2ccccc2N=C(NC(=O)C(C)N2C(=O)c3ccccc3C2=O)C1c1ccccc1 (stereo unspecified)	100	89	96	-15
CC(C)NC(=O)N1CCC(N2CCN(Cc3ccc(F)cc3)C(=O)C2=O)CC1	89	86	103&99	-18
CCCn1c(=O)cc(N)n(-c2ccc(Cl)cc2)c1=O	103	88	106	-42
COc1ccc(CN=C(C)c2c(O)c3ccccc3n(C)c2=O)cc1	80	84	113	-1
CCOC(=O)c1c(NC(=O)COc2ccc(Cl)cc2C)sc(C(=O)Nc2ccccc2F)c1C	.	.	105	5
CC(=C\c1ccccc1)/C=C1/SC(=S)N(CCC(=O)NCCCN2CCOCC2)C1=O	.	.	113	-40

# Looked up above.
# GIV-Gai inh result of Cc1ccc(CNC(=O)c2cccn2-c2nnc(N3CCOCC3)s2)cc1 stands at 108
# Sa growth inh second temp result of CCn1c(SCC(=O)OCC(=O)N2c3ccccc3Sc3ccccc32)nnc1-c1ccco1 stands at 75

# (list continues)
# Letter code – A = Sa growth inh; B = Sa growth inh second temp; C = GIV-Gai inh; D = HCMV NEC inh
Cc1cc(N)n(CCC#N)n1
  A: 94	B: 75	C: .	D: -17

CC(=O)N(c1ccc2oc(=O)sc2c1)S(=O)(=O)c1ccccc1
  A: 66	B: 53	C: 99	D: .

CSC1=NSC2=NC(=O)/C(=C\c3ccc(-c4ccccc4)o3)C(=N)N12
  A: 83	B: 49	C: 109	D: -14

CC(C(=O)NC1CCCCCC1)n1c(=O)c2cccn2c2cccnc21 (stereo unspecified)
  A: 95	B: 90	C: 101	D: -20

c1ccc(-c2nn(-c3ccccc3)[n+](-c3nnn[n-]3)n2)cc1
  A: 70	B: 46	C: 96	D: -151

CCOc1cccc(C2c3c(oc4cc(C)c(C)cc4c3=O)C(=O)N2c2nc(C)c(C)s2)c1 (stereo unspecified)
  A: 95	B: 85	C: 99	D: -4

Cc1ccc(S(=O)(=O)n2cc(/C=C(\C#N)C(N)=O)c3ccccc32)cc1
  A: 91	B: 88	C: .	D: -28

Cc1ccc2ncc(C(=O)Nc3cccc(F)c3)c(=O)n2c1
  A: .	B: .	C: 103	D: -13

Cc1ccccc1-c1nc(CN2CCC(C(=O)NC(C)C)CC2)c(C)o1
  A: 99	B: 87	C: 106	D: -3

O=C(O)/C=C/c1cccnc1
  A: 99	B: 102	C: 105	D: -12

CC(Sc1nnc2ccccn12)C(N)=O (stereo unspecified)
  A: 93	B: 89	C: .	D: -20

# Of the compounds above, these have an aryl thioether with sulfur outside any ring:
# Letter code – A = Sa growth inh; B = Sa growth inh second temp; C = GIV-Gai inh; D = HCMV NEC inh
Cc1ccc(Cn2c(CO)cnc2SCC(=O)Nc2ccc3c(c2)OCO3)cc1
  A: 89	B: 82	C: 108	D: -37

CCn1c(SCC(=O)OCC(=O)N2c3ccccc3Sc3ccccc32)nnc1-c1ccco1
  A: 105	B: 75	C: .	D: -38

Cc1csc(SCC(=O)N2CCCC2)n1
  A: 104	B: 94	C: 102	D: -2

FC(F)(F)c1nc(SCc2ccc(Cl)cc2)n[nH]1
  A: 25	B: 9	C: 103	D: -21

COc1ccc(-c2nnc(SCc3cccc(Cl)c3)o2)cc1
  A: 99	B: 86	C: 105	D: -7

Cn1c(=O)c2sccc2n2c(SCc3ccccc3F)nnc12
  A: .	B: .	C: 98	D: -34

COc1cccc(CNCCSc2nnnn2-c2ccccc2)c1OC
  A: 109	B: 88	C: 101	D: -12

CCCCc1ccc(NC(=O)CSc2nc3ccccc3nc2N2CCOCC2)cc1
  A: 101	B: 92	C: 102	D: -9

COC(=O)CCn1c(C)cc(C(=O)CSc2cccc[n+]2[O-])c1C
  A: 81	B: 96	C: .	D: -8

O=C(CSc1nc2ccccc2[nH]1)N1CCCc2ccccc21
  A: 104	B: 95	C: .	D: 2

CC(Sc1nnc2ccccn12)C(N)=O (stereo unspecified)
  A: 93	B: 89	C: .	D: -20
